Menin-MLL FL inh: qHTS Assay for Inhibitors Targeting the Menin-MLL Interaction in MLL Related Leukemias: Competition With Fluorescein Labeled MLL-derived Peptide | Fluorescence polarization, fluorescein-MLL peptide displacement from menin | FP activity change, % at 61.4 µM | 290,000 tested, under 10 active | AID 1766, 2009; inconclusive = falling polarisation curve, or a change in total fluorescence; inactive = total fluorescence flat and polarisation flat or rising; no compound was filed as active; the % refers to the polarisation; negative = inhibition;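 also: % of control where 0% means no effect; inhibitors lower the polarisation; unlabelled MLL peptide was the positive control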
Sfp inh: qHTS Assay for Inhibitors of Bacillus subtilis Sfp phosphopantetheinyl transferase (PPTase); 4'-phosphopantetheinyl transferase ffp (Bacillus subtilis), Q9F4F7; Biochemical Sfp PPTase activity, qHTS; Potency, µM, for the others: max response, negative = inhibition, actives largely listed as inhibitors; hit rate 3.5% among 310,000; AID 1490, 2009; active = well fitted inhibition curve with a large enough effect; inconclusive = small, poorly fitted or top-dose-only effect, or another doubt; inactive = no such curve, though single readings can be large or run the other way;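 also: the enzyme is Sfp with the accession as filed and its product quenches rhodamine fluorescence; potency is read from the fitted curve at half-maximal effect; 0% = enzyme reaction without inhibitor and -100% = no enzyme wells; top concentration of the series not given in the record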
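Reaction rates are the 30-min fluorescence difference (ex 525, em 598 nm) in wells containing 15 nM Sfp, 5 uM rhodamine-CoA and 12.5 uM BHQ-2-YbbR at pH 7.6 with 10 mM MgCl2.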
gsp ag: qHTS for Agonist of gsp, the Etiologic Mutation Responsible for Fibrous Dysplasia/McCune-Albright Syndrome: qHTS | gsp mutant cells, cAMP HTRF, 30 min; control for the full effect not named in the record | Potency, µM (series often up to 76.9 µM), without a hit: at the top dose activation (cAMP increase), most hits filed as activators | hit rate 0.13% among 340,000 | AID 624287, 2012; active = well fitted activation curve with a large enough effect; inconclusive = small, poorly fitted or top-dose-only effect, or another doubt; inactive = no such curve, though single readings can be large or run the other way; cell line not stated here;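 also: phosphodiesterase inhibitor Ro 20-1724 added with compounds to block cAMP breakdown; potency is read from the fitted curve at half-maximal effect; nearly all actives have a fitted effect of over 60% in size; about a fifth of the inactives were tested at one dose only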
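Cells stably selected in G418 were plated at 2000/well, grown 16-24 hr, then given compounds in DMSO with the PDE inhibitor […] (300 uM solution added) for 30 min at 37C; cAMP was read by HTRF.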
ClpP mod: qHTS Assay for Activators of ClpP | purified B. subtilis ClpP, FRET peptide cleavage, 20 min | hit rate 1.9% among 340,000 | Potency, µM (top dose mostly 57.5 µM), inactives show at the top dose activity change, negative = active | AID 651965, 2013 | ATP-dependent Clp protease proteolytic subunit (Bacillus subtilis (strain 168)), P80244; active = well fitted falling curve with a large enough effect; inconclusive = small, poorly fitted or top-dose-only effect; inactive = no such curve, though single readings can be large or run the other way; also: potency is read from the fitted curve at half-maximal effect; the source files actives as falling curves though it sought activators and does not explain the sign; nearly all actives have a fitted effect of over 65% in size; many hits overshoot -100%
Target sequence (P80244 whole entry, looked up): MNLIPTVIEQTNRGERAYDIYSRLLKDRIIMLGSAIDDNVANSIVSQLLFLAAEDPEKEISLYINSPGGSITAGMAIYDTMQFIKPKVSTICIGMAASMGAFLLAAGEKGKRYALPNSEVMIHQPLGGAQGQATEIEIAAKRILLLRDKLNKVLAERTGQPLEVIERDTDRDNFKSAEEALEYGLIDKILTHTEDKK
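FRET quenching reversal measured ClpP activation: 10 microg/mL B. subtilis ClpP at pH 8 with the FRET-FV decapeptide, read at 430 nm after 320 nm excitation. The 20-min minus 0-min signal was scaled between DMSO/no-enzyme wells and ADEP (5.8 microM final).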
gsp antagonist: qHTS for Antagonists of gsp, the Etiologic Mutation Responsible for Fibrous Dysplasia/McCune-Albright Syndrome: qHTS. AID 624288, 2012. hit rate 0.4% among 340,000. Potency, µM (top dose mostly 76.9 µM), for the others: at the highest dose activity change, negative = inhibition, most hits filed as inhibitors. gsp-mutant cells, cAMP HTRF, 30 min; control for the full effect not named in the record; active = falling curve of any shape with a large fitted effect; inconclusive = falling curve, mostly with a smaller effect; inactive = flat or rising curve; cell line not stated here;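 also: intracellular cAMP measured with PDE inhibitor Ro 20-1724 present during compound exposure; potency is read from the fitted curve at half-maximal effect; % is scaled to controls: 0 for no effect and ±100 for the full control effect; nearly all actives have a fitted effect of over 65% in size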
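HTRF cAMP measurement after 30 min RT detection following 30 min, 37C compound treatment alongside […] (added as 300 uM solution) in G418-selected cells seeded at 2000/well and grown 16–24 h.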
D2 ag: Beta-Arrestin HTS for Positive Allosteric Modulators of the Human D2 Dopamine Receptor: Agonists. D(2) dopamine receptor (Homo sapiens), P14416. DiscoveRx PathHunter D2 beta-arrestin, luminescence, 90 min; 100% = 57 uM dopamine signal. activation, % (concentration not given with the values). hit rate 0.084% among 360,000; in the data active = activation above about 40%; inconclusive = about 15% to 40%; inactive = below about 15%; also: compound concentration not given in the record; the text of the record calls up to 30% inactive
Target sequence (P14416 whole entry, looked up): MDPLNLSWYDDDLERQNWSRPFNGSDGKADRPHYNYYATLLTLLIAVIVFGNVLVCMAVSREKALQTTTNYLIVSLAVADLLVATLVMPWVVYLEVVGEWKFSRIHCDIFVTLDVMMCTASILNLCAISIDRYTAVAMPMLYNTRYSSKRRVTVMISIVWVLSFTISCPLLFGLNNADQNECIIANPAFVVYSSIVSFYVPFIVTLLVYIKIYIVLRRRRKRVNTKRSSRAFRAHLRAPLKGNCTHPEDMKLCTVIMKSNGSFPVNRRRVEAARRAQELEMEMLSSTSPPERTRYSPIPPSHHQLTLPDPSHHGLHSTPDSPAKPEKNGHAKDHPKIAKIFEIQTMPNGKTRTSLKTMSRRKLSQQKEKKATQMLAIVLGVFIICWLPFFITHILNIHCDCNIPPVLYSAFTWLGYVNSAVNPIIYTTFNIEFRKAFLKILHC
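Agonist mode: compounds alone added to overnight-plated D2 PathHunter cells for 90 min at 37 C, with 57 uM final dopamine (EC100) defining full response. Beta-arrestin recruitment detected by chemiluminescent reagent, read after 1 h at ambient temperature.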
PINK1 expr mod: A Quantitative High throughput Screen to Identify Chemical Modulators of PINK1 Expression; PINK1 immunofluorescence, high-content cytometry, 24 h; Potency, µM (highest dose often 76.6 µM), for inactives: top-dose activation (PINK1 increase), hits mostly activators; hit rate 0.2% among 410,000; active = well fitted activation curve with a large enough effect; inconclusive = small, poorly fitted or top-dose-only effect; inactive = flat fitted curve, though single readings scatter; cell line not stated here;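 also: potency is read from the fitted curve at half-maximal effect; % of control where 0% means no effect; nearly all actives have a fitted effect of over 65% in size; a mitochondrial uncoupler was the plate control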
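PINK1 protein, normally rapidly degraded, was detected by immunofluorescence after 24 hour compound treatment of a stable cell line. Titration data (5 concentrations) came from laser-scanning cytometry, with CCCP-treated wells as controls.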
Active calls of the source: *; ? = inconclusive; · = no result given; [ ] = another dose, or the depositor's remark.

molecule,gsp ag,Sfp inh,ClpP mod,D2 ag,gsp antagonist,Menin-MLL FL inh,PINK1 expr mod
O=C(CCn1nnc2ccccc21)N/N=C\Cc1ccccc1,-26.9%[15.4 µM],13.4%,·,2.1,-7.8%,1.5,-0.1%
COc1ccc(-c2ccccc2)cc1NC(=O)C1(C)CCN1C(=O)C(C)C (stereo unspecified),·,·,-1.5%,-4.4,·,·,0.0%
CN(Cc1nccs1)C(=O)c1ccc2nc(Cc3ccccc3F)oc2c1,-36.3%[inhibitor],3.9%,-3.9%,0.7,1.4%,·,-1.1%
O=C(Nc1nc(-c2ccc(-c3ccccc3)cc2)cs1)C1CCCO1 (stereo unspecified),?,?,-23.2%,0.9,-30.3%,1.1,2.8%
COc1ccc(C2NC(=S)NC3=C2CCc2ccccc23)cc1OC (stereo unspecified),-16.4%[15.4 µM],-21.5%,?,-5.6,-4.3%,5.9,2.3%
CCOC(=O)[C@@H]1[C@H]2COc3ccc(Br)cc3[C@@H]2N2C(=O)N(c3ccc(Br)cc3)C(=O)[C@]12C,·,8.3%,-1.8%,-4.3,-3.4%,1.9,0.4%
Cc1cc(C)cc(NC(=O)C(=O)NCCCN2CCCC2=O)c1,-19.4%,·,-6.3%,-2.8,3.4%,·,3.0%
CCOc1ccc(CNC(=O)C2CCC(=O)N2C2CCCC2)cc1OC (stereo unspecified),?,11.0%,0.4%,-3.7,3.2%,0.4,·
Cc1ccc(NC(=O)N(Cc2ccc3c(c2)OCO3)Cc2cc3cc4c(cc3[nH]c2=O)OCCO4)cc1,?,6.2%,?,-4.4,9.0%,1.6,1.8%
Cc1ccc(NC(=O)CN(C)C(=O)Cn2c(=O)oc3ccccc32)cc1,-3.6%[15.4 µM],·,-2.4%,2.1,4.9%,·,-1.5%
CCCCCCN(C(=O)CCCN1C(=O)NC(c2ccc(-c3ccccc3)cc2)C(C(=O)OCc2ccccc2)=C1C)C(C)C(=O)NCCCC (stereo unspecified),·,·,-5.3%,-2.6,-1.9%,·,-0.5%
COC(=O)C(C)Oc1ccc(-c2nccc(-c3cccs3)n2)cc1 (stereo unspecified),-25.0%,?,-27.0%,-4.4,-14.6%,1.6,-3.5%
CN(c1ccc(C(=O)Nc2nccs2)cc1)S(=O)(=O)c1ccccc1,14.8%,6.8%,-3.3%,-1.7,?,1.4,8.6%[38.3 µM]
CCOC(=O)CNC(=O)c1cccnc1Oc1ccc(Cl)cc1,4.6%[15.4 µM],15.8%,-1.5%,-3.8,6.6%,-0.2,-0.1%
CSc1ccn(CCC(=O)O)c(=O)n1,-7.6%,17.5%,2.3%,-4.5,-1.7%,-0.8,-0.7%
COc1ccc(-c2[nH]ncc2CN(CCO)CC23CC4CC(CC(C4)C2)C3)c(OC)c1,1.8%,18.4%,·,-3.4,3.6%,-0.1,-0.6%
CCC(CC)COC(=O)C(C#N)c1nc2ccccc2nc1N1CCN(CC)CC1 (stereo unspecified),-2.6%,-22.6%,-1.4%,-3.9,3.6%,10.7,14.4%[38.3 µM]
Cc1nn(-c2ccccc2)c2sc(C(=O)O)cc12,-18.3%,2.3%,-8.0%,-1.8,-18.5%,3.9,0.5%
CCCS(=O)(=O)Nc1c(OC)ccc2c1c(C(=O)OCC)c(C)n2C,-4.7%,-15.7%,-0.7%,-6.4,7.4%,-0.8,1.2%
Cc1ccc(N(CN2C(=O)NC(C)(C)C2=O)CN2C(=O)NC(C)(C)C2=O)cc1,-4.5%,9.0%,0.0%,-1.7,7.2%,-0.8,0.0%
CCOC(=O)c1c(C)oc2c1cc(NS(=O)(=O)c1ccc(C(=O)O)cc1)c1ccccc12,5.1%[15.4 µM],56.2µM*,·,1.1,-16.0%,9.8,-0.8%
COc1ccc(C(=O)NNC(=O)CN2CCC(n3nnc4cc(C(F)(F)F)ccc43)CC2)cc1,-16.4%,15.8%,-1.5%,3.7,-0.9%,-3.2,·
O=C(NC1CCCCC1)c1ccccc1NC(=O)C1CC(=O)N(c2ccccc2)C1 (stereo unspecified),-31.1%[inhibitor],3.8%,-1.9%,-3.5,-19.7%,3.3,7.0%[38.3 µM]
CCN(CC)S(=O)(=O)c1ccc(CNC(=O)CN2C(=O)NC3(CCc4ccccc43)C2=O)cc1 (stereo unspecified),-59.0%[inhibitor],·,-1.5%,-1.8,8.5%,·,3.1%
O=C(NC(Cc1ccc(O)cc1)C(=O)O)c1ccco1 (stereo unspecified),0.9%[15.4 µM],16.7%,·,0.7,9.1%,-2.4,-1.0%
O=C(O)c1cccc(Br)c1,·,·,-1.8%,2.6,6.3%,·,2.3%
CC(O)/C=C/c1ccc2ccccc2n1 (stereo unspecified),4.6%,16.0%,-0.6%,-3.3,4.8%,-2.3,10.4%[38.3 µM]
N#CCCS(=O)(=O)c1ccc(N)cc1,-1.5%[15.4 µM],15.0%,-1.6%,-4.6,10.7%,6.0,2.2%
COc1ccc(/C(C)=N/NC(=S)NCCc2ccccc2)c(O)c1,2.6%[15.4 µM],2.1%,·,-3.1,-17.5%,-6.4,5.1%
O=C(COC(=O)c1cccnc1Cl)NCCCc1ccccc1,-115.3%[inhibitor],·,-1.8%,-3.8,-6.1%,·,3.5%
O=S(=O)(NCc1ccc(Cl)cc1Cl)c1cccs1,-2.0%,19.9%,·,1.6,8.6%,-3.1,5.9%
CN1CCN(C(=O)CN(Cc2ccc(Cl)cc2)S(C)(=O)=O)CC1,24.0%,0.6%,1.8%,-0.2,7.8%,3.4,0.8%
COc1cc(CNC(=O)C2CCCN2S(=O)(=O)c2ccccc2)cc(OC)c1OC (stereo unspecified),2.7%,20.4%,·,0.4,-8.0%,0.7,0.3%
Clc1ccc(OCCOCCN2CCCCC2)c(Br)c1,-2.8%,56.2µM*,-3.8%,1.5,7.1%,-0.5,·
O=C(O)c1ccc(NS(=O)(=O)c2cccc(C(=O)Nc3ccccc3[N+](=O)[O-])c2)cc1,23.0%,9.1%,-0.5%,12.0,0.8%,-2.3,-1.7%
COc1ccc(NC(=O)c2c(N)no[n+]2[O-])c(OC)c1,13.0%[15.4 µM],4.7%,1.1%,0.8,-0.3%,4.7,-1.0%
Cc1ccc(NS(=O)(=O)c2ccc(C(=O)N3CCN(c4ncccn4)CC3)cc2)cc1,-34.0%[15.4 µM],-4.4%,·,9.1,-22.4%,-2.7,-0.7%
CCOc1ccc(NC(=O)CCC(=O)NNC(=O)c2ccccc2Cl)cc1,17.1%,8.8%,0.3%,-2.6,-5.2%,·,-0.4%
O=C(NCC1CCCO1)C(c1cccs1)N(Cc1cccs1)C(=O)c1ccc(-c2ccccc2)[nH]1 (stereo unspecified),-20.8%,7.3%,-26.4%,1.8,-28.1%,8.4,-0.7%
CCCOc1ccc(/C(O)=C2/C(=O)C(=O)N(CCN3CCOCC3)C2c2ccccc2)cc1 (stereo unspecified),-42.0%[inhibitor],·,-1.0%,2.1,12.4%,·,-0.4%
COCCn1c(=O)cnc2cnc(N3CCN(C)CC3)nc21,·,-6.4%,·,·,·,-25.3,-0.1%
COc1ccc(C(=O)Nc2nc(-c3ccccc3)c(C(C)=O)s2)c(OC)c1,17.7%[15.4 µM],13.3%,·,6.3,-27.6%,-2.7,6.0%
O=C(CC1SC(N2CCOCC2)=NC1=O)Nc1cc([N+](=O)[O-])ccc1Cl (stereo unspecified),-12.3%[15.4 µM],7.9%,-10.4%,-5.2,2.9%,-2.6,-1.3%
CC(O)c1nc2ccccc2n1Cc1nnc(-c2ccc(Cl)cc2)o1 (stereo unspecified),25.9%,10.5%,-17.5%,0.8,12.4%,2.8,1.3%
COc1ccc(N2CCN(C(=O)c3cccnc3)CC2)c([N+](=O)[O-])c1,1.7%,12.4%,·,2.3,-0.2%,-3.0,0.4%
COc1ccccc1-c1cnn2c(NCc3ccccc3)cc(C)nc12,26.9%,-2.9%,4.4%,-4.3,-11.1%,2.7,2.4%
C=CCn1c(SCC(=O)NNC(=S)Nc2ccccc2)nnc1-c1ccccc1,0.8%[15.4 µM],5.4%,·,-11.1,-5.2%,2.1,-1.5%
COCCn1c(=S)[nH]c2cc(C(=O)NCc3ccc(F)cc3)ccc2c1=O,?,·,0.3%,-5.0,·,·,6.4%
CCOc1cc(C=NNC(=O)CCCC(=O)NN=Cc2ccc(O)c(OCC)c2)ccc1O,3.7%,·,-14.2%,0.6,6.2%,·,-0.1%
CCOc1ccc(N(CC(=O)N/N=C(\C)c2cccc(NC(C)=O)c2)S(=O)(=O)c2ccccc2)cc1,-6.2%,-4.6%,-3.3%,3.3,?,2.2,7.5%
Cc1ccc(F)cc1-c1cc2nc(NCCCN(C)C)n(C)c(=O)c2s1,·,·,-16.6%,3.4,·,·,-1.3%
CCOC(=O)/C=C1\SCC(=O)N1CC(=O)N1CCOCC1,17.0%,10.2%,-0.9%,4.5,7.9%,-0.4,-1.1%
CCOc1ccc2[nH]c(C)c(CN3CCOCC3)c(=O)c2c1,?,18.2%,?,-1.5,9.6%,3.8,3.3%[38.3 µM]
CN(Cc1cn(-c2ccccc2)nc1-c1cc2ccccc2o1)C(=O)CCC(=O)O,-0.3%[15.4 µM],15.9%,·,-0.2,?,1.9,2.2%
